VDR inhibitor: blocks the human vitamin D receptor. P11473. VDR-SRC2-3 peptide fluorescence polarization, 2 h. Potency, µM, without a hit: max response, negative = inhibition, hits mostly inhibitors. 400,000 tested, 0.93% active; active means well fitted inhibition curve with a large enough effect; inconclusive means small, poorly fitted or top-dose-only effect, or another doubt; inactive means no such curve, though single readings can be large or run the other way; further: series mostly up to about 120 µM
Target sequence (P11473 whole entry, looked up): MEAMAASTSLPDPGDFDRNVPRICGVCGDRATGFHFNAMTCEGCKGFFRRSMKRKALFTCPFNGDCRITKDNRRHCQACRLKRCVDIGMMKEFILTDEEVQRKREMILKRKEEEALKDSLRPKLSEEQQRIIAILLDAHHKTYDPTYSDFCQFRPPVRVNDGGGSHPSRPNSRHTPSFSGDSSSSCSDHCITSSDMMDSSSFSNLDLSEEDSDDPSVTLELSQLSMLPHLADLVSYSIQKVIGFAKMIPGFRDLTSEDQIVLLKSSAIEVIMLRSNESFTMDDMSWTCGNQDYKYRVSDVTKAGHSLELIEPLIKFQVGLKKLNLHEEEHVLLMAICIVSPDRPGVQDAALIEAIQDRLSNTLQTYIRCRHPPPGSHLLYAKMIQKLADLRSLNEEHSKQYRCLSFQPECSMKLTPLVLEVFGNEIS
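Compounds are added to VDR with labelled SRC2-3 coactivator peptide and held 2 h at room temperature. Inhibition of the VDR–peptide interaction is then read as a change in fluorescence polarization.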
Numbers without * were called inactive; ? = inconclusive; [ ] = another dose, or the depositor's remark. On the % scale 0 is the no-effect control and ±100 the full control effect; potency means the concentration at half of the fitted maximal effect. A portion of the library (hit frequency here may not be typical).

VDR inhibitor | compound
4% | CC1(C)O[C@@H]2[C@H](O1)[C@@H](COS(=O)(=O)O)O[C@H]2n1ccc(=O)[nH]c1=O
24% | COc1cc(/C=N/NC(=O)c2cccnc2)ccc1OC(=O)c1cc(OC)c(OC)c(OC)c1
21% | COc1ccc(OC)c(S(=O)(=O)N(C)CC(=O)Nc2cc(Cl)ccc2OC)c1
8% | CSc1ccc(C(=O)NCC(c2ccco2)N(C)C)cc1[N+](=O)[O-] (centres undefined)
0% | C=CCNC(=O)c1oc2ccc(S(=O)(=O)N3CCC4(CC3)OCCO4)cc2c1C
4% | O=C(C[C@@H]1C/C=C\C[C@H](NC(=O)OCC2c3ccccc3-c3ccccc32)C(=O)OC[C@@H]2CCCN2C1=O)N[C@H](CO)Cc1ccccc1
11% | CCOC(=O)c1ccc(NC(=O)NCc2ccncc2)cc1
1% | COc1ccc(C2N=C(N)Nc3nc4ccccc4n32)cc1 (centres undefined)
10% | O=C(/C=C/Nc1ccc(Oc2ccccc2Cl)cc1)c1ccco1
-3% | CC1CC(C)CN(C(=S)Nc2ccc(OC(F)F)cc2)C1 (centres undefined)
-2% | CC1CN(S(=O)(=O)c2cccc(C(=O)N=c3sccn3C)c2)CC(C)O1 (centres undefined)
-22% | C=CCN(Cc1nc(-c2ccccc2)no1)C(=O)c1ccc2c(c1)OCO2
2% | O=C(c1ccccc1-c1ccccc1)N1CCCC1
12% | Cc1ccc(C)n1-c1nnc(N2CCC(C(=O)Nc3ccccc3Br)CC2)s1
9% | CC(C)(C)c1cc(C(=O)NC2CC2)n(Cc2ccc(F)cc2)n1
3% | CCn1ncc(Cl)c1C(=O)Nc1cc(Cl)ccc1Cl
-7% | Cc1ccc(NC(=O)CSc2ccc(-c3ccc4c(c3)OCO4)nn2)cc1F
0% | CC(C)Cc1nc2oc3c(Cl)ncnc3c2c2c1CCCC2
8% | COc1ccc(CCNC(=O)Cn2c(=O)nc(-c3ccccc3F)c3cc(Cl)ccc32)cc1OC
79µM* | CCCSC1=N/C(=C\c2ccc([N+](=O)[O-])o2)C(=O)S1
16% | Cc1ccc2c(c1)cc(CN(Cc1ccc3c(c1)OCO3)C(=O)c1ccccc1)c1nnnn12
-1% | CC1CCN(S(=O)(=O)c2csc(C(=O)Nc3ccccc3)c2)CC1
-6% | Cn1c(N2CCC(C(N)=O)CC2)nc2c1c(=O)n(Cc1cccc(Br)c1)c(=O)n2C
-14% | COC(=O)C(C)N(c1ccc(OC)cc1)S(C)(=O)=O (centres undefined)
5% | COc1cccc(Nc2ncc3nc(CCc4ccccc4)c(=O)n(C)c3n2)c1
7% | CCc1ccc(NC(=O)Nc2ccccc2OCc2cc(=O)n3ccccc3n2)cc1
2% | Cc1cc(NC(=O)CSc2nc(-c3ccc(Br)cc3)nc3c2c(=O)n(C)c(=O)n3C)no1
-5% | Cn1ccc2cc(S(=O)(=O)N3CCCC(C(=O)NCc4ccc(F)cc4)C3)ccc21 (centres undefined)
-15% | CSc1ccccc1C(=O)Nc1ncn[nH]1
12% | CCc1ccccc1N1C(=O)N(C)c2ccccc2S1(=O)=O
0% | COC(=O)c1ccc(S(=O)(=O)NCc2ccco2)n1C
-8% | O=C(c1cccc(C(F)(F)F)c1)N1CCN(S(=O)(=O)c2ccc(Cl)s2)CC1
3% | CC1C(=NO)C(C)C(c2ccccc2)NC1c1ccccc1 (centres undefined)
1% | O=C1CS/C(=N/N=C/c2ccc(OS(=O)(=O)c3ccccc3)cc2)N1
-6% | COc1ccc(-c2nc(CN3CCC(C(=O)NC4CC4)CC3)c(C)o2)cc1OC
4% | O=C(CNC(=O)c1ccco1)N/N=C/c1ccc(C(=O)O)cc1
-14% | O=C(O)c1cc(O)ccc1NC(=O)C(c1ccccc1)c1ccccc1
1% | COc1ccc(N=C2SC(C(=O)Nc3ccc(C(=O)O)cc3)CC(=O)N2Cc2cccs2)cc1 (centres undefined)
-2% | CCOC(=O)c1c(C)[nH]c(C)c1S(=O)(=O)N(C)CC(=O)Nc1ccc(C)cn1
-2% | O=C(CNC(=O)c1ccccc1Br)NCCSc1ccc(Br)cc1
-5% | CSc1ccc(/C=C(\C(=O)O)c2ccc(S(=O)(=O)N3CCCCC3)s2)cc1
1% | COc1ccc2c(c1)OC[C@H]1[C@H]2N2C(=O)CN(C)C(=O)[C@@]2(C)[C@H]1c1ccccc1
-10% | CCOC(=O)CCCCN(Cc1ccccc1F)S(=O)(=O)c1ccc(F)c(C(=O)Nc2cc(Cl)cc(Cl)c2)c1
-2% | Cc1ccc2nc(SCC(=O)NC3CCS(=O)(=O)C3)[nH]c2c1 (centres undefined)
-13% | CC(=O)c1ccc(NC(=S)N2CCN(C(=S)Nc3ccc(C(C)=O)cc3)C(C)C2)cc1 (centres undefined)
-23% | COC(=O)C1=C(C)N(Cc2ccccc2)C(=O)N[C@H]1c1cccc(C(F)(F)F)c1
-6% | CC(C)(C)OC(=O)NCCCC[C@H](NC(=O)c1[nH]cnc1C(=O)Nc1ccc(CNC(=O)OC(C)(C)C)cc1)C(=O)OC(C)(C)C
-22% | CCN(CC)CCCNC(=O)c1cn(CC)c2ccc(S(=O)(=O)N3CCC(C)CC3)cc2c1=O
0% | COc1cccc(N(CC(=O)NCc2cccnc2)S(C)(=O)=O)c1
-1% | Cc1cc(C)c(C#N)c(SCC(=O)Nc2ccccc2C#N)n1
-5% | O=C(NC1CCCC1)C(c1cccnc1)N(Cc1ccc(F)cc1)C(=O)c1csnn1 (centres undefined)
-8% | Cc1ccc2c(c1)N(C(=O)CCC(=O)NCCN1CCOCC1)CCO2
4% | Cc1ccc(NC(=O)CSc2nnc3c(n2)[nH]c2ccccc23)cc1
-3% | COc1ccc(NC(=O)C2CC(=O)N(CCc3ccc(F)cc3)C2)c(OC)c1 (centres undefined)
-3% | Cc1nn(C)c(C(=O)NC2C3CC4CC(C3)CC2C4)c1Cl (centres undefined)
10% | O=C(CSc1ccc2nnc(-c3ccccn3)n2n1)Nc1cccc(F)c1
-2% | CNC(=O)COc1coc(CN2CCN(c3ccccc3F)CC2)cc1=O
-1% | O=C(O)/C=C/C(=O)Nc1ccc(SC(F)(F)F)cc1
-7% | CCOC(=O)c1[nH]c2ccccc2c1N=CN(C)C
-18% | CCCNc1cc(C)oc(=O)c1C(=O)CC

Part of the list above in another layout.
SMILES	VDR inhibitor
CC1(C)O[C@@H]2[C@H](O1)[C@@H](COS(=O)(=O)O)O[C@H]2n1ccc(=O)[nH]c1=O	4%
COc1cc(/C=N/NC(=O)c2cccnc2)ccc1OC(=O)c1cc(OC)c(OC)c(OC)c1	24%
COc1ccc(OC)c(S(=O)(=O)N(C)CC(=O)Nc2cc(Cl)ccc2OC)c1	21%
CSc1ccc(C(=O)NCC(c2ccco2)N(C)C)cc1[N+](=O)[O-] (centres undefined)	8%
C=CCNC(=O)c1oc2ccc(S(=O)(=O)N3CCC4(CC3)OCCO4)cc2c1C	0%
O=C(C[C@@H]1C/C=C\C[C@H](NC(=O)OCC2c3ccccc3-c3ccccc32)C(=O)OC[C@@H]2CCCN2C1=O)N[C@H](CO)Cc1ccccc1	4%
CCOC(=O)c1ccc(NC(=O)NCc2ccncc2)cc1	11%
COc1ccc(C2N=C(N)Nc3nc4ccccc4n32)cc1 (centres undefined)	1%
O=C(/C=C/Nc1ccc(Oc2ccccc2Cl)cc1)c1ccco1	10%
CC1CC(C)CN(C(=S)Nc2ccc(OC(F)F)cc2)C1 (centres undefined)	-3%
CC1CN(S(=O)(=O)c2cccc(C(=O)N=c3sccn3C)c2)CC(C)O1 (centres undefined)	-2%
C=CCN(Cc1nc(-c2ccccc2)no1)C(=O)c1ccc2c(c1)OCO2	-22%
O=C(c1ccccc1-c1ccccc1)N1CCCC1	2%
Cc1ccc(C)n1-c1nnc(N2CCC(C(=O)Nc3ccccc3Br)CC2)s1	12%
CC(C)(C)c1cc(C(=O)NC2CC2)n(Cc2ccc(F)cc2)n1	9%
CCn1ncc(Cl)c1C(=O)Nc1cc(Cl)ccc1Cl	3%

(next part)
VDR inhibitor | compound
6% | COc1ccccc1-c1cc(C(=O)Nc2cc(C)on2)no1
-21% | COC(=O)c1nn2c(C(F)(F)F)cc(-c3ccc(Br)o3)nc2c1Br
5% | COc1ccc(C(C#N)N2CCOCC2)cc1 (centres undefined)
3% | Cc1ccc(CNC(=O)c2oc3ccc(S(=O)(=O)N4CCCC(C)C4)cc3c2C)cc1 (centres undefined)
-20% | CCn1c2ccccc2c2nc3cc(OC)c(OC)cc3nc21
10% | COc1ccc(C(C#N)C2(C)OCCO2)cc1OC (centres undefined)
-11% | Cn1c(OCc2ccco2)nc2c1c(=O)n(Cc1ccc(Cl)c(Cl)c1)c(=O)n2C
-9% | O=C(N/N=C/c1ccccc1OC(F)F)NC1CCCCC1
-7% | Cc1ccc(NC(=O)c2ncn(CC(=O)NCC(C)c3ccccc3)n2)cc1C (centres undefined)
7% | Cc1ccc2c(c1)N(C(=O)N1CCC(C(=O)NC3CCCCCC3)CC1)CC(C)O2 (centres undefined)
-20% | S=c1nc(-c2cc(Cl)cc(Cl)c2)[nH][nH]1
-6% | Cc1noc(C)c1C(=O)NC(Cc1c[nH]c2ccccc12)C(=O)O (centres undefined)
-18% | CCC(Oc1ccc(F)cc1)C(=O)Nc1c(C(=O)c2ccc(C)cc2)oc2ccccc12 (centres undefined)
-7% | COC(=O)C1=C(C)NC(C)=C(C(=O)OC)C1c1cc2cc(C)ccc2[nH]c1=O
-3% | O=c1c(Cl)c(N2CCCCC2)cnn1-c1nc2ccccc2[nH]1
32%[activator] | CC1CCN(S(=O)(=O)c2ccc3c(c2)N(CC(=O)NCCN2C(C)CCCC2C)C(=O)CS3)CC1 (centres undefined)
10% | CC(C)c1cc(N2CCOCC2)n2ncc(-c3ccccc3)c2n1
-14% | CC(=O)Nc1ccc(Nc2cc(C)nc3c(-c4ccc(Cl)cc4)cnn23)cc1
10% | CC(C)Oc1cc(NC(=O)CS(=O)CC(=O)N(C)C)c(Cl)cc1Cl (centres undefined)
? | O=C(CCC(=O)c1cccs1)NCC(=O)Nc1ccc(F)c(F)c1F
6% | CCOC(=O)C1=C(C)N=c2sc(=C(C)C)c(=O)n2C1c1ccc(N(C)C)cc1 (centres undefined)
15% | COc1ccc(NS(=O)(=O)c2cccc(NC(=O)CCC(=O)c3cccs3)c2)cc1
5% | Cc1cc(-n2nc(C)cc2C)nc(NS(=O)(=O)c2ccccc2)n1
5% | COC(=O)c1ccc(NC(=O)N2CCN(Cc3cc(=O)n4nc(-c5ccc(C)cc5)sc4n3)CC2)cc1
-1% | OCCN1CCN(Cc2cc(Cl)c3cccnc3c2O)CC1
16% | COC(=O)c1ccccc1NC(=O)C1CCCN(S(C)(=O)=O)C1 (centres undefined)
3% | N#Cc1cc(N2CCCCC2)c([N+](=O)[O-])cc1C#N
-3% | O=C(NCCC(=O)N1CCN(c2ncccn2)CC1)c1ccccc1Cl
-2% | COc1cccc(OCc2nc3ccccc3n2CCOc2cccc(C)c2)c1
8% | COC(=O)c1c(C(=O)OC)c2n(c1C)CCS2
3% | CC(C)CNS(=O)(=O)c1ccc(CCC(=O)NCCc2ccccc2)cc1
-3% | O=C(Oc1ccc(-n2cnnn2)cc1)c1ccco1
-6% | O=c1cc2c(nn1Cc1c(Cl)cccc1Cl)-c1ccccc1CC2
40µM* | c1nc(NC2CC2)c2cc(-c3ccoc3)ccc2n1
-4% | NC(=O)CS(=O)(=O)c1nc2ccccc2n1CC(=O)N1CCCCC1
-9% | CCOCC(O)CNC(=O)c1ccc2nc(Cc3ccc(OC)c(OC)c3)oc2c1 (centres undefined)
5% | COc1ccc(S(=O)(=O)NCCCCCC(=O)NCCCN2CCOCC2)cc1
-13% | Cc1[nH]c2ccccc2c1Cc1nnc(SCCC#N)o1
15% | COC(=O)C(Cc1ccc(O)cc1)NC(=O)C1CCN(S(=O)(=O)c2ccc(C)cc2)CC1 (centres undefined)
1% | CCCCNS(=O)(=O)c1ccc2c(c1)oc(=O)n2CC(=O)OCC
15% | CCc1ccccc1OCC(=O)Nc1ccc(C)c(S(=O)(=O)N2CCCCCC2)c1
-3% | CCc1ccc(C(=O)CSc2nc(-c3ccccc3)nc3c2CCCC3)cc1
1% | CCCOc1ccc(C(=O)N(Cc2ccccc2Cl)C2CCS(=O)(=O)C2)cc1 (centres undefined)
-7% | COc1cccc(NC(=O)/C=C\c2ccc(Cl)cc2)c1
-1% | CC(=O)Nc1ccc(NC(=O)CSc2ccc(-c3cccs3)nn2)cc1
3% | COC(=O)c1ccc2c(=O)n(CCO)c(=S)[nH]c2c1
-14% | O=C(Cc1ccc(Br)cc1)N/N=C/c1ccc(-c2cccc(C(=O)O)c2)o1
7% | Cc1cc(C(F)(F)F)nn1CC(=O)NNC(=S)NCC(C)C
5% | COc1ccc(-n2c(C)cc(C(=O)CSc3ccc(NC(C)=O)cc3)c2C)cc1
-1% | CCC(=O)Nc1nnc(CSCc2ccccc2)s1
-15% | Cc1cc2c(cc1S(=O)(=O)N1CCN(c3cccc(C)c3C)CC1)OCC(=O)N2
? | O=C1/C(=C\c2ccsc2)NC(=S)N1c1ccccc1
12% | COCCCN1CCc2nc(SCC(=O)Nc3ccc(C)c(Cl)c3)[nH]c(=O)c2C1
2% | CSCCC(NC(=O)c1ccccc1Br)C(=O)N1CCCC(C(F)(F)F)C1 (centres undefined)
10% | COC(=O)C(CC(=O)c1ccc(Cl)cc1)c1ccc(C)cc1 (centres undefined)
5% | O=C1CC(C(=O)Nc2ccccc2)C2(CCCCC2)O1 (centres undefined)

Bioassay records: PubChem, National Center for Advancing Translational Sciences (NCATS)
